From PubChem BioAssay
D2 ag: human D2 receptor agonism in beta-arrestin assay; P14416; DiscoveRx PathHunter D2 beta-arrestin, luminescence, 90 min; 100% = 57 uM dopamine signal; 360,000 tested, 0.084% active; activation, % (concentration not given with the values); in the data active = activation above about 40%; inconclusive = about 15% to 40%; inactive = below about 15%; also: compound concentration not given in the record; the text of the record calls up to 30% inactive
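Agonist mode: compounds alone added to overnight-plated D2 PathHunter cells for 90 min at 37 C, with 57 uM final dopamine (EC100) defining full response. Beta-arrestin recruitment detected by chemiluminescent reagent, read after 1 h at ambient temperature.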
Six1-Eya2 inh: blocks human Six1 binding to Eya2 | Q15475+O00167 | AlphaScreen GST-Six1/His-Eya2 binding, biochemical; stronger effect = lower value; control for the full effect not named in the record | activity change, % (no concentration beside the values) | 360,000 tested, 0.56% active | AID 651725; in the data active = activity change below about -65%; inconclusive = about -30% to -65%; inactive = above about -30%; also: % is scaled to controls: 0 for no effect and ±100 for the full control effect; compound concentration not given in the record
Target sequence (O00167 whole entry, looked up): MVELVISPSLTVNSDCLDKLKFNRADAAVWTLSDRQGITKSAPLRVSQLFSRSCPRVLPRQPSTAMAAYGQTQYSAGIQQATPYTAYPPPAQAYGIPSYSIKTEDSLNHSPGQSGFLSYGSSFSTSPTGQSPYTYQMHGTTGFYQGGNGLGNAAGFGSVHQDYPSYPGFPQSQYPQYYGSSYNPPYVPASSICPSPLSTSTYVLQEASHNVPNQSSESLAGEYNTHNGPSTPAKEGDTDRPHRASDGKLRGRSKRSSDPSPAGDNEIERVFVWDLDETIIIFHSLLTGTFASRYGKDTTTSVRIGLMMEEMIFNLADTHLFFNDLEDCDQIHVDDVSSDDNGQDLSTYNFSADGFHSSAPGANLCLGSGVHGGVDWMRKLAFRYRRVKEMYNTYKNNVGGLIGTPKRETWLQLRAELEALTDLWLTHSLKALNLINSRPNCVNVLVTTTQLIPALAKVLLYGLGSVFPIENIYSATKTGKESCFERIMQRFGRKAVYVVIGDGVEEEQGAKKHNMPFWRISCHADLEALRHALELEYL
Target sequence (Q15475 whole entry, looked up): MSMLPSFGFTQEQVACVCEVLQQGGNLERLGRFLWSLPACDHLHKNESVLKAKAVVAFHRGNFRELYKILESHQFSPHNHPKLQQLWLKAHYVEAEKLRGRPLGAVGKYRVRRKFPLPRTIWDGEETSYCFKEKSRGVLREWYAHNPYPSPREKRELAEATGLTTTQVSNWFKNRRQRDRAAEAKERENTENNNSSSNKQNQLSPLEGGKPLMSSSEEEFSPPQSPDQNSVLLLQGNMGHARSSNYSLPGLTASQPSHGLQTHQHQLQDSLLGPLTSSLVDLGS
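Compounds are tested against tagged Six1 and Eya2 proteins bridged by glutathione donor and nickel acceptor beads; after a one-hour incubation at 37 °C without light, AlphaScreen emission is recorded.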
gsp agonist: activates gsp, the McCune-Albright syndrome mutation; gsp mutant cells, cAMP HTRF, 30 min; control for the full effect not named in the record; Potency, µM (top dose mostly 76.9 µM), inactives show at the highest dose activation (cAMP increase), actives largely listed as activators; 340,000 tested, 0.13% active; AID 624287; active = well fitted activation curve with a large enough effect; inconclusive = small, poorly fitted or top-dose-only effect, or another doubt; inactive = no such curve, though single readings can be large or run the other way; cell line not stated here;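 also: phosphodiesterase inhibitor Ro 20-1724 added with compounds to block cAMP breakdown; potency is read from the fitted curve at half-maximal effect; nearly all actives have a fitted effect of over 60% in size; about a fifth of the inactives were tested at one dose only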
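Cells in DMEM/10% FBS with G418 were pretreated with compounds in DMSO plus […] (300 uM stock) for 30 min at 37C. cAMP was measured by HTRF (cAMP-d2 plus anti-cAMP antibody-K) after 30 min at room temperature.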
gsp antag: gsp mutant antagonism; gsp-mutant cells, cAMP HTRF, 30 min; control for the full effect not named in the record; Potency, µM (top dose mostly 76.9 µM), inactives show at the highest dose activity change, negative = inhibition, actives largely listed as inhibitors; 340,000 tested, 0.4% active; AID 624288; active = falling curve of any shape with a large fitted effect; inconclusive = falling curve, mostly with a smaller effect; inactive = flat or rising curve; cell line not stated here;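 also: intracellular cAMP measured with PDE inhibitor Ro 20-1724 present during compound exposure; potency is read from the fitted curve at half-maximal effect; % is scaled to controls: 0 for no effect and ±100 for the full control effect; nearly all actives have a fitted effect of over 65% in size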
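G418-selected cells were plated in DMEM/10% FBS for 16-24 h at 37C, then treated with compounds plus the PDE inhibitor […] (300 uM solution added) for 30 min at 37C. Intracellular cAMP was measured by HTRF after 30 min lysis at room temperature.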
CtBP-E1A inh: inhibitors of CtBP/E1A interaction; AlphaScreen GST-E1A/His-CtBP binding, 1536-well; stronger effect = lower value; control for the full effect not named in the record; activity change, % (no concentration beside the values); 340,000 tested, 0.49% active; AID 651724; in the data active means activity change below about -65%; inconclusive means about -30% to -65%; inactive means above about -30%; also: % is scaled to controls: 0 for no effect and ±100 for the full control effect; compound concentration not given in the record
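In 5 uL wells, 23 nL compound meets equimolar GST-E1A and His-CtBP (5X stock 125 nM each) for 2 h, 37 °C. Beads (5X, 50 ug/mL) then 1 h, 37 °C, dark.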
D2 potentiator: potentiates the human D2 dopamine receptor allosterically. P14416. DiscoveRx D2 beta-arrestin cells, luminescence, 90 min; 100% = 57 uM dopamine signal. potentiation, % (test concentration not listed). 360,000 tested, 0.23% active; active = potentiation of 50% or more; inconclusive = 30% to 50%; inactive = 30% or less;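 also: compound concentration not given in the record; tested on top of an EC20 dose of dopamine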
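PathHunter D2 cells, attached overnight at 37 deg C, received compound in DMSO plus dopamine at EC20 (50 nM final) for 90 min at 37 deg C. Beta-arrestin recruitment was read as luminescence after 1 h with detection reagent at ambient temperature.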
Active calls of the source: *; ? = inconclusive; / = not tested or not shown; [ ] = another dose, or the depositor's remark.

D2 ag | Six1-Eya2 inh | gsp agonist | gsp antag | CtBP-E1A inh | D2 potentiator | mol
-2.9 | 4 | 43% | 9% | / | 0 | COC(=O)C1CC(O)CN1S(=O)(=O)c1ccc2ccccc2c1 (stereo not drawn)
-4.2 | 0 | -5% | 16% | -4 | 9 | O=C(Nc1ccccc1)ON=C1c2ccccc2-c2ccccc21
-2.7 | 4 | 15% | 11% | -1 | -9 | CCn1ncc(S(=O)(=O)Nc2cccnc2)c1C
-0.3 | 0 | -72%[inhibitor] | 3% | 12 | -6 | CCCn1c(NCCO)nc2ccccc21
14 | 0 | 7% | 12% | 5 | ? | Cc1ccc(-n2nnnc2CNC(=O)c2ccc([N+](=O)[O-])o2)cc1C
-6.1 | -12 | ? | 11% | / | -10 | CCN(CC)CCNc1ccc2nnc(CCNS(=O)(=O)c3ccc(C)cc3)n2n1
-3.6 | 3 | / | -16% | -15 | -16 | COc1ccc(CNC(=O)COc2cc(O)c3c(c2)OC(C)(C)CC3=O)cc1
0.4 | 2 | 6%[15.4 µM] | 11% | 18 | -7 | Cc1[nH]c2ccccc2c1C(=O)CN1CC(C)OC(C)C1 (stereo not drawn)
-3.6 | -16 | 3% | -18% | -26 | -19 | CN(C(=O)COC(=O)c1cccnc1Nc1cccc(C(F)(F)F)c1)C1CCS(=O)(=O)C1 (stereo not drawn)
-1.2 | -9 | -8% | -1% | -12 | -2 | CN(C)c1oc(-c2ccccc2F)nc1C#N
-5.2 | 13 | 10%[15.4 µM] | 4% | -1 | -14 | CCOC(=O)C1=C(C)NC(=O)/C1=C\N(C)C
-2.8 | 0 | 6% | 1% | -3 | -6 | O=C(Nc1nc(-c2cccs2)c(-c2ccccc2)s1)c1ccco1
1.8 | 9 | -37%[inhibitor] | 4% | 15 | -13 | CC(=O)c1cc2c(cc1N/C(=N/S(=O)(=O)c1ccc(C)cc1)c1ccc(Cl)cc1)OCO2
7.8 | ? | -1% | ? | / | -11 | CCCN1C(=O)c2cc(C(=O)Nc3cccc(C(C)=O)c3)ccc2C1Nc1cccc(C(C)=O)c1 (stereo not drawn)
1.0 | -25 | 10% | 3% | 0 | -3 | COCCn1c(C)cc(C(=O)COc2ccc(N(C)S(=O)(=O)c3ccc(C)cc3)cc2)c1C
-1.3 | -9 | 60%[15.4 µM] | 14% | -4 | 19 | O=[N+]([O-])c1ccccc1S(=O)(=O)Nc1cccc(-c2ccc3nncn3n2)c1
-5.5 | -17 | 1%[15.4 µM] | 0% | 0 | -19 | CC(=O)N1CCC(C(=O)N2CCN(S(=O)(=O)c3ccc(F)cc3)CC2)CC1
-19 | 3 | 22%[15.4 µM] | 16% | 5 | -3 | C/C(=N\O)c1ccc(Cl)cc1Cl
-7.0 | -1 | -14% | 18% | 0 | -4 | Cc1ncc(CN2CCC(C(=O)Nc3ccc(-n4cccn4)cc3)CC2)s1
-1.0 | 3 | -25% | 15% | 4 | -1 | Cc1c(N)cccc1-c1nc2ccccc2[nH]1
-3.9 | 7 | 24% | -2% | 12 | -2 | C=CCn1c(=O)c(C(=O)NCc2ccccc2Cl)c(O)c2ccccc21
-6.1 | 16 | 15% | -14% | 0 | 9 | CS(=O)(=O)c1ccc2nc(NC(=O)Nc3cccc(Cl)c3)sc2c1
-3.5 | -14 | ? | 0% | -4 | 0 | Nc1ccc2oc(-c3ccccn3)nc2c1
-2.8 | 2 | 19%[15.4 µM] | -2% | 0 | -11 | CC1(C)CC(=O)C(C=NCCN2CCN(C3CC(=O)N(c4ccc(Br)cc4)C3=O)CC2)=C(O)C1 (stereo not drawn)
1.9 | 0 | -12%[15.4 µM] | 5% | 5 | 2 | Cc1cc(S(=O)(=O)N2CCCc3ccccc32)ccc1-n1cnnn1
-1.7 | -2 | -16% | -11% | / | -9 | Cc1cc(-c2ccc(/C=N/n3cnnc3)o2)ccc1Cl
1.2 | -5 | -27% | -21% | -9 | -16 | Cc1c(Cc2ccccc2)c(=O)oc2cc(OCC(=O)NCc3ccccn3)ccc12
-6.5 | 11 | / | / | -17 | -5 | Cc1ccc(CN2CCC2(C)C(=O)NC(C)C)cc1 (stereo not drawn)
-2.1 | -18 | -29% | -8% | -9 | -3 | Cc1ccccc1-n1c(SCC(=O)N/N=C/c2c(C)nn(-c3ccccc3)c2C)nc2ccccc2c1=O
3.9 | -5 | -36%[inhibitor] | -8% | 3 | -2 | COc1ccc(NC(=O)Cc2c[nH]c3ccccc23)cc1S(=O)(=O)N1CCOCC1

Next section; the last 2 above are carried over.
D2 ag | Six1-Eya2 inh | gsp agonist | gsp antag | CtBP-E1A inh | D2 potentiator | mol
-2.1 | -18 | -29% | -8% | -9 | -3 | Cc1ccccc1-n1c(SCC(=O)N/N=C/c2c(C)nn(-c3ccccc3)c2C)nc2ccccc2c1=O
3.9 | -5 | -36%[inhibitor] | -8% | 3 | -2 | COc1ccc(NC(=O)Cc2c[nH]c3ccccc23)cc1S(=O)(=O)N1CCOCC1
-3.3 | 2 | 8% | -1% | -4 | -11 | CCN1C(=O)/C(=C\c2ccc3c(c2)OCO3)C(C(=O)OC)=C1C
-1.2 | 0 | -7%[15.4 µM] | -3% | 2 | -8 | Cn1c(C2=C(O)CN(Cc3ccccc3)C2=N)[n+](C)c2ccccc21
-0.9 | 2 | -4% | -11% | -4 | -31 | C/C(=N\NC(=O)c1cccc(S(=O)(=O)N2CCOCC2)c1)c1ccc(OC(F)F)cc1
3.2 | 4 | -32%[inhibitor] | -5% | 2 | 0 | O=S1(=O)c2ccccc2C(O)(c2ccccc2)c2ccccc21
1.1 | 6 | 0% | -4% | 5 | 4 | CCCCOc1ccc(/C(N)=N/O)cc1
-2.1 | ? | ? | 2% | ? | -18 | CC1CCN(C(=O)CSc2nc(N)c3c4c(sc3n2)CN(C)CC4)CC1
-0.2 | 3 | -18%[15.4 µM] | 13% | 5 | -6 | COC(=O)CC1C(=O)NCCN1C(=S)NC(=O)C(c1ccccc1)c1ccccc1 (stereo not drawn)
-0.1 | 18 | 18% | 6% | 0 | -10 | O=C(NCc1nnc2c(C(F)(F)F)cc(Cl)cn12)C1CCCC1
-4.2 | 1 | -63%[inhibitor] | -6% | / | -6 | COc1cccc(C(=O)Nc2ccc(C(=O)NCC(C)C)cc2)c1
-1.9 | 2 | 3% | 8% | 0 | -8 | CC(C)C(NC(=O)c1ccccc1NC(=O)c1ccccc1)C(=O)NNC(=O)c1ccncc1 (stereo not drawn)
3.2 | 3 | -26% | 14% | 5 | -13 | CC(C)(C)C1CCc2onc(C(=O)Nc3cnn(Cc4ccc(F)cc4)c3)c2C1 (stereo not drawn)
0.6 | -2 | 0% | 1% | 0 | 7 | COC(=O)c1c(NC(=O)c2cccc(S(=O)(=O)N3CCN(C)CC3)c2)sc(C)c1C
-1.4 | -4 | 1%[15.4 µM] | 6% | -1 | -8 | COc1cccc(C(C(=O)NC(C)(C)C)N(CCc2ccccc2)C(=O)CCC(=O)Nc2cc(C)on2)c1OC (stereo not drawn)
-1.9 | -8 | 24% | 2% | -6 | -14 | Cc1cc(C(=O)N/N=C/c2ccc3ccccc3c2)n[nH]1
-5.4 | 8 | 24%[15.4 µM] | 3% | 7 | 0 | O=C(c1ccc(S(=O)(=O)Nc2ccccc2)cc1)N1CCCC1
-7.9 | 7 | 4% | 19% | -6 | -23 | COc1ccc(Cl)c2sc(N(CCN(C)C)C(=O)C3=COCCO3)nc12
-5.8 | 0 | -17% | 2% | / | -11 | COc1ccccc1NC(=O)COC(=O)c1c[nH]c(=O)[nH]c1=O
-2.4 | 3 | 9% | 0% | 3 | 12 | CCCCNC(=O)OC(C)CNC(=O)OC (stereo not drawn)
-0.9 | 0 | / | -5% | -20 | 2 | CC(C)NC(=O)Nc1cccc2c1O[C@H](CN(C)S(=O)(=O)c1cccs1)[C@@H](C)CN([C@H](C)CO)C2=O
1.4 | 6 | -21% | -3% | 2 | 1 | CCOC(=O)CSc1cc(CS(=O)c2ccc(Cl)cc2)nc(-c2ccccc2)n1 (stereo not drawn)
-2.1 | -2 | 10% | 17% | -1 | -22 | Cc1cccc(C)c1NC1=NC(C)(C)N=C(N)N1
-2.9 | 2 | -2% | -4% | 7 | 13 | C=CCNc1nc(NC(C)(C)CO)nc(OC)n1
-3.0 | 2 | 29% | 4% | 4 | -7 | O=C(CNC(=O)[C@@H]1Cc2ccccc2CN1)Nc1ccc2c(c1)OCCO2
-7.7 | -9 | 3%[15.4 µM] | ? | -4 | -9 | c1csc(-c2nnc(N3CCCCCC3)c3ccccc23)c1
-0.7 | 4 | -2%[15.4 µM] | 10% | -7 | -2 | O=C(CNC(=S)N(CCCN1CCOCC1)Cc1cccs1)N1CCOCC1
-3.7 | -73* | -24% | / | -23 | -4 | O=C(O)c1c2c(nc3ccc(S(=O)(=O)N4CCC(C(=O)NCc5ccccc5)CC4)cc13)CCCC2
-2.5 | 4 | -47%[inhibitor] | 8% | 1 | -11 | Cc1cccnc1NC(=O)c1ccc(S(=O)(=O)N2CCCCC2)cc1
-1.9 | 4 | ? | 12% | 23 | -7 | C=CCN1CN(Cc2ccco2)CNC1=S
-3.9 | 4 | 2% | -9% | -7 | -7 | CCC(C(=O)NCCc1c[nH]c2ccc(C)cc12)c1ccccc1 (stereo not drawn)

Among those listed so far, these contain a Cl atom.
D2 ag | Six1-Eya2 inh | gsp agonist | gsp antag | CtBP-E1A inh | D2 potentiator | mol
1.8 | 9 | -37%[inhibitor] | 4% | 15 | -13 | CC(=O)c1cc2c(cc1N/C(=N/S(=O)(=O)c1ccc(C)cc1)c1ccc(Cl)cc1)OCO2
-19 | 3 | 22%[15.4 µM] | 16% | 5 | -3 | C/C(=N\O)c1ccc(Cl)cc1Cl
-3.9 | 7 | 24% | -2% | 12 | -2 | C=CCn1c(=O)c(C(=O)NCc2ccccc2Cl)c(O)c2ccccc21
-6.1 | 16 | 15% | -14% | 0 | 9 | CS(=O)(=O)c1ccc2nc(NC(=O)Nc3cccc(Cl)c3)sc2c1
-1.7 | -2 | -16% | -11% | / | -9 | Cc1cc(-c2ccc(/C=N/n3cnnc3)o2)ccc1Cl
-0.1 | 18 | 18% | 6% | 0 | -10 | O=C(NCc1nnc2c(C(F)(F)F)cc(Cl)cn12)C1CCCC1
-7.9 | 7 | 4% | 19% | -6 | -23 | COc1ccc(Cl)c2sc(N(CCN(C)C)C(=O)C3=COCCO3)nc12
1.4 | 6 | -21% | -3% | 2 | 1 | CCOC(=O)CSc1cc(CS(=O)c2ccc(Cl)cc2)nc(-c2ccccc2)n1 (stereo not drawn)
